# Calb FLC: C. albicans growth modulation with fluconazole; C. albicans CaCi-2 (fluconazole-resistant clinical isolate) + fluconazole, Alamar Blue growth, 48 h; growth inhibition, % (no concentration beside the values); 300,000 compounds, 0.57% hits; AID 1979;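 active = most replicates above 75%; inconclusive = exactly half above 75%; inactive = most below 75%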;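 also: all wells also contain fluconazole at 8 µg/ml as a sub-toxic cotreatment; 0% = median of DMSO wells and 100% = median of geldanamycin control wells; wells of about 8 µL received 7.5 nL stock; the first replicate is given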
# Beta cell apopt: beta cell apoptosis inhibition; INS-1E cytokine-induced death, ATP luminescence, 48 h; percent of positive-control rescue, neutral wells zero; 300,000 compounds, 0.8% hits; protection from apoptosis, % (concentration not given with the values);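 active = all replicates at 75% or more, or half of them and the mean; inconclusive = half reach 75% but not the mean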;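 also: 0% = cytokine-treated negative control wells and 100% = positive control rescue; higher means more ATP so stronger rescue from cytokine killing; wells of about 40 µL received 100 nL stock; the first replicate is given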
# AF4-AF9 inh: inhibitors of human MLL-AF4/AF9 interaction; P42568; AlphaScreen, biotin-AF4 peptide binding to FLAG-AF9; inhibition, % at 10 µM; 350,000 compounds, 0.47% hits;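 active = every replicate reaching a set inhibition limit, whatever the replicate mean, cut at about 25% in these data; inconclusive = mean inhibition reaches that limit but some replicates miss it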;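 also: 0% = plate neutral control median and 100% = total signal loss; the record names both 10 and 1 µM as test concentration; the first replicate is given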
# Target sequence (P42568 whole entry, looked up): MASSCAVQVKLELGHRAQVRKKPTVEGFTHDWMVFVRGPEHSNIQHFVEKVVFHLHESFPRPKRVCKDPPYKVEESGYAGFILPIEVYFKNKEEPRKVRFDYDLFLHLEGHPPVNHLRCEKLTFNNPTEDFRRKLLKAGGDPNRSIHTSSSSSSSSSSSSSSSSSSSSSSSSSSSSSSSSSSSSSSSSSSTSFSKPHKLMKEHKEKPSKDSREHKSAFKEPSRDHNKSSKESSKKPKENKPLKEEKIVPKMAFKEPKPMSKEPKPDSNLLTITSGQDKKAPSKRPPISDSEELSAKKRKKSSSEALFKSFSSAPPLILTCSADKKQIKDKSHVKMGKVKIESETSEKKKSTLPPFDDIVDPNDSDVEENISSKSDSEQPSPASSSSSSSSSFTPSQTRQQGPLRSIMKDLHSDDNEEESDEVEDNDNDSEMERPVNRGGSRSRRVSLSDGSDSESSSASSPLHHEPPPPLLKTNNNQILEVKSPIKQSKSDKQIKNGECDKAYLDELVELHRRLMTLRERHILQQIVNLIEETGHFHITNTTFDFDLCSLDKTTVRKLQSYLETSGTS
# RanGTP-Impb inh: disruptors of Ran-importin-beta complex formation – biochemical, FRET, CFP-Ran, YFP-importin-beta, homogeneous, primary screen; cell-free CFP-Ran/YFP-importin-beta FRET ratio; inhibition, % (no concentration beside the values); 300,000 compounds, 1.1% hits;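 active = most replicates above 15%; inconclusive = exactly half above 15%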;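 also: 0% = DMSO wells and 100% = Ran loaded with GDP instead of GTP; wells of about 40 µL received 100 nL stock; the first replicate is given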
# T cruzi inh: blocks replication of Trypanosoma cruzi. T. cruzi beta-gal in NIH3T3, luminescence, 90 h. AID 1885. 300,000 compounds, 1.4% hits. inhibition, % (concentration not given with the values);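 active = mean inhibition across valid replicates above about 55%, limit read from the data; inconclusive = mean below that limit but half or more replicates reach it; inactive = mean below it, under half of replicates reach it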;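 also: signal also drops with host cell toxicity which is not excluded here; 0% = plate median of DMSO wells and 100% = zero luminescence signal; higher percent means less beta-gal luminescence so fewer parasites; stock transfer was 50 nL into about 50 µL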
# A1 inh: inhibitors of the anti-apoptotic protein A1, read as caspase activation | MEF A1-2A-BIM cells, Caspase-Glo 3/7 luminescence, 3 h; percent of clofoctol response, vehicle zero | caspase activation, % (no concentration beside the values) | 330,000 compounds, 0.066% hits | AID 2462;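 active = over half of replicate activation scores above 10%, or exactly half above 10 with the replicate mean above 10; inconclusive = replicate mean below 10 yet half the replicates above 10; inactive = over half of replicates below 10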;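 also: wells of about 30 µL received 50 nL stock; many hits fall short of the cut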
# rRNA inh HTS: inhibitors of bacterial rRNA selective over humanized ribosomes; E. coli WT GFP vs humanized-ribosome RFP mutants, fluorescence, 24 h; active compounds read low; DMSO median 0, no signal -100; AID 720706; GFP signal change (wild-type ribosome), % (concentration not given with the values); 350,000 compounds, 1.6% hits;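 active = significant combined selectivity score with lowered wild-type GFP, culture density cut under 30%, mutant RFP and density less affected; inactive = any of these conditions unmet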; also: one replicate is shown; some compounds called inactive have numbers as strong as hits
# Vif A3G: inhibitors of Vif binding to APOBEC3G peptide, primary screen, biochemical, TR-FRET, GST-Vif 1-94, biotin-A3G peptide, dose response retest (AID 1117319); 260,000 compounds, 0.57% hits; inhibition, %, or IC50 in µM where a hit was titrated; TR-FRET GST-Vif / biotin-A3G peptide binding; higher % means a stronger effect; test concentration not given here; strong numbers were not always called active;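 active = above the screen mean plus three standard deviations and confirmed in dose response; inconclusive = results disagree or hit not tested in dose response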;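 also: Vif residues 1-94 fused to GST binding biotinylated APOBEC3G peptide 110-148; 0% = full assay without inhibitor and 100% = GST in place of GST-Vif; retest series ran down from 100 µM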
# rRNA inh HTS OD600: also measured in rRNA inh HTS; calls as there; OD600 change, %; measured here: OD600 growth;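 optical density of the mix in the first replicate; 0 = DMSO median and -100 = no signal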
# rRNA inh HTS RFP: further read-out of rRNA inh HTS, marked with its call; RFP signal change, %; measured here: RFP humanized mutant strains;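 first replicate; 0 = DMSO median and -100 = no signal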
# Active calls of the source: *; u = inconclusive; x = no result given.
SMILES,Calb FLC,Beta cell apopt,AF4-AF9 inh,RanGTP-Impb inh,T cruzi inh,A1 inh,rRNA inh HTS,rRNA inh HTS OD600,rRNA inh HTS RFP,Vif A3G
Cc1c2cnn(CC(=O)NCc3ccccn3)c(=O)c2c(C)n1Cc1ccc(Cl)cc1,-18,5,0.1,-5.7,1,-0.7,-5,-17,3.7,-3%
COC(=O)/C=c1/s/c(=C(\C#N)C(=O)NCc2ccco2)n(-c2ccc(C)cc2)c1=O,2,5,x,-1.3,-3,0.3,x,x,x,u
Nc1nc(-c2ccc(Br)cc2)c(S(=O)(=O)c2ccccc2)s1,3,-4,x,2.7,5,-0.2,x,x,x,-8%
COc1ccc(CNC(=O)c2noc(C(C)C)c2[N+](=O)[O-])cc1,32,-5,x,-1.6,-1,0.1,x,x,x,x
CC(=O)NCc1c(Cl)cccc1-n1cccc1,1,-3,x,-0.7,-3,0.9,6,15,-2.4,73µM*
O=C(NCC1CCCO1)c1cc(-c2ccccc2F)no1 (centres undefined),7,13,-0.6,-2.1,-18,-0.1,2,0,1.9,x
COc1ccc(C(c2nnnn2C(C)(C)C)N2CCN(C(=O)c3ccco3)CC2)cc1 (centres undefined),4,1,2.2,-0.6,3,0.2,2,-2,-1.9,x
O=C(Nc1ccc(F)cc1)Nc1cc(S(=O)(=O)N2CCOCC2)ccc1N1CCCC1,0,-6,2.1,0.9,3,-0.3,-18,-6,0.9,1%
COc1ccc(C(=O)COC(=O)C(CCCCN2C(=O)C3C4C=CC(C4)C3C2=O)N2C(=O)C3C4C=CC(C4)C3C2=O)cc1 (centres undefined),5,x,x,-1.5,23,x,x,x,x,1%
COc1cc(CNCCN2CCOCC2)ccc1OCc1ccc(Cl)cc1Cl,-2,16,x,-1.6,49,-0.4,x,x,x,3%
O=C(Cn1nc(-c2ccccc2)c2ccccc2c1=O)Nc1cccnc1,-17,-2,x,-1.2,-4,0.4,x,x,x,13%
CC1=C(CC(=O)O)c2cc(F)ccc2/C1=C\c1ccc(S(C)=O)cc1 (centres undefined),x,5,-3.8,1.6,-10,0.9,x,x,x,-11%
CN(C)CCOc1ccc(Cl)cc1C(C)(C)C,-23,-2,4.9,4.2,58*,0.5,-2,5,2.0,x
COc1cccc(Nc2c([N+](=O)[O-])cncc2[N+](=O)[O-])c1,10,-9,6.5,2.0,19,1.4,-13,-27,-15,x
Cc1ccc(OC(=O)c2cccc(S(=O)(=O)N3CCCC3)c2)c(-n2nc3ccccc3n2)c1,-2,1,x,2.7,4,-5.5,x,x,x,-6%
COC(=O)c1ccc(NS(=O)(=O)c2cccc3cccnc23)cc1,-12,-4,x,-3.3,-2,0.2,x,x,x,-6%
COc1cc(C2C(C#N)=C(N)Oc3n[nH]c(-c4cccnc4)c32)cc(Br)c1O (centres undefined),15,-2,3.1,9.6,-15,0.6,-13,-12,5.9,x
CN(C(=O)c1ccc(NC(=O)C2CCN(C(=O)OC(C)(C)C)CC2)cc1)C1CC1,x,-4,0.7,x,x,0.5,11,9,6.1,x
N#Cc1cccc(NC(=O)c2ccc(S(=O)(=O)N3CCOCC3)cc2)c1,x,-1,-1.2,x,x,1.4,x,x,x,-5%
Oc1ccc(CCc2n[nH]c(=S)n2-c2ccc(F)cc2)cc1,-2,4,-8.2,-2.3,-3,-1.6,x,x,x,3%
COc1ccccc1CNC(=O)CN1CCN(Cc2ccc(Cl)cc2)C1=O,-7,x,-4.3,-2.4,1,x,-1,4,4.7,x
CC(=O)NCCn1c(SCC#N)nc2ccccc2c1=O,-16,-2,x,-2.0,-13,0.0,x,x,x,-8%
COc1ccc(/C=N/NC(=O)Cn2ccnc2C)cc1OC,12,13,1.0,-5.7,-11,0.2,21,17,-0.5,-2%
Clc1ccc(-c2nnc3n2CCCCS3)cc1,-13,3,x,0.2,-15,0.3,x,x,x,12%
CCOc1cccc2cc(C(C)=O)oc12,9,-2,-12,-2.5,-6,0.2,0,6,7.7,-2%

# Other compounds
SMILES,Calb FLC,Beta cell apopt,AF4-AF9 inh,RanGTP-Impb inh,T cruzi inh,A1 inh,rRNA inh HTS,rRNA inh HTS OD600,rRNA inh HTS RFP,Vif A3G
CC[C@H](C)[C@H](NC(=O)CNC(=O)COc1cc2c(c3oc(=O)cc(C)c13)CCC(C)(C)O2)C(=O)O,5,-11,-5.3,-2.4,2,0.2,10,12,1.5,0%
OCCCNc1nccc(-c2cc(Nc3cccc(Cl)c3)ncn2)n1,-6,-58,-2.8,-1.3,42,1.3,0,13,9.4,x
CCOC(=O)c1sc(NC(=O)C2CC(=O)N(c3ccc(OC)cc3)C2)nc1C (centres undefined),-1,-1,2.6,-1.3,13,0.7,-8,-14,4.6,x
C=Cc1ccc(COC(=O)c2cn(CC)c3nc(C)ccc3c2=O)cc1,2,-2,-3.9,7.7,0,2.0,1,-3,-1.1,-3%
COC(=O)c1c(-c2cccc(OC)c2)csc1N,6,-3,2.8,2.4,-16,1.1,2,7,31,-1%
COCCCNc1nc2ccccc2[nH]c1=O,-14,1,-2.0,4.5,-2,-0.2,8,-1,-0.3,-2%
COc1cc(CCC(=O)Nc2ccc(S(=O)(=O)NC3=NCCCCC3)cc2)cc(OC)c1OC,0,-6,-0.1,u,-7,0.8,-3,4,-1.9,x
CCCCC(=O)Nc1nc(C)c(-c2csc(Nc3cc(OC)ccc3OC)n2)s1,-2,3,1.2,-2.0,0,-0.2,0,6,-7.7,0%
COc1ccc(CC(=O)Nc2cc(S(=O)(=O)N3CCCCC3)ccc2N2CCN(C)CC2)cc1,-23,-1,13,3.2,54,0.4,13,3,-4.0,x
NS(=O)(=O)c1ccc(NC(=O)Cc2c(F)cccc2Cl)cc1,2,-2,1.5,-0.9,-1,0.5,1,-4,-6.3,-1%
N#Cc1c(N)nc2c(c1-c1ccccc1)CCC2,-4,-6,-2.9,29*,1,-0.5,-4,1,2.3,-2%
O=C(Nc1ccc(-c2cc3ccccc3oc2=O)c(Cl)c1)c1cccnc1,-6,-4,-3.8,-3.7,-11,0.0,4,15,1.7,-7%
O=C(COC(=O)c1cccc2ccccc12)NCC1CCCO1 (centres undefined),-1,-8,-2.8,4.0,-13,-0.6,5,-8,-0.2,x
CC1(C)CC(=O)C2=C(C1)N1C(=C(C#N)C2c2ccccc2Cl)N=C(N)c2ccccc21 (centres undefined),14,9,3.7,7.5,7,1.3,5,6,13,-9%
CC(C)c1nnc(NC(=O)CCC(=O)NCc2ccc(F)cc2)s1,-4,-4,-0.8,-3.9,8,0.5,6,15,3.0,0%
O=C(O)C1C2C=CC(C2)C1C(=O)OC1CC2CCC1C2 (centres undefined),6,2,x,0.8,-2,-1.1,x,x,x,12%
Cc1cccc(Nc2nnc(SCc3cc(=O)n4cc(C)ccc4n3)s2)c1,5,6,-0.2,1.8,-9,0.0,-1,-3,-5.2,x
Cc1ccc(NCN2C(=O)C3CC=C(Cl)CC3C2=O)cc1 (centres undefined),0,0,x,1.5,-4,0.3,x,x,x,2%
COC(=O)CSc1nc2ncc(Cl)cc2[nH]1,34,-1,x,-4.2,-6,-0.7,x,x,x,-2%
CN(C)C(=O)c1cc(C(=O)c2ccc(F)cc2Cl)c[nH]1,11,x,-4.7,-1.5,-7,0.2,-9,5,-0.6,4%
CC(=O)C12C3C4C(C5C1C3C5(Br)C41OCCO1)C21OCCO1 (centres undefined),-23,x,x,5.0,12,-0.1,x,x,x,x
CC(NC(=O)C(=O)N1CCCCC1)C(c1cccs1)N1CCN(c2ccc(F)cc2)CC1 (centres undefined),-6,-1,1.1,1.7,-21,0.4,1,-18,-1.4,-4%
O=C(COC(=O)c1cc(Cl)nc(Cl)c1)NCc1ccc2c(c1)OCO2,x,6,-13,x,x,-0.2,8,9,2.2,x
Cc1ccc([N+](=O)[O-])cc1NCC(=O)NN,-42,-9,2.3,-1.2,2,-1.4,-1,7,-0.4,5%
O=C(NCc1cccnc1)C1CCN(S(=O)(=O)c2cccc(C(F)(F)F)c2)CC1,x,-4,-0.5,x,x,0.3,-3,-2,-5.2,x

# Part of the list above, field by field.
NS(=O)(=O)c1ccc(NC(=O)Cc2c(F)cccc2Cl)cc1
- Calb FLC: 2
- Beta cell apopt: -2
- AF4-AF9 inh: 1.5
- RanGTP-Impb inh: -0.9
- T cruzi inh: -1
- A1 inh: 0.5
- rRNA inh HTS: 1
- rRNA inh HTS OD600: -4
- rRNA inh HTS RFP: -6.3
- Vif A3G: -1%
N#Cc1c(N)nc2c(c1-c1ccccc1)CCC2
- Calb FLC: -4
- Beta cell apopt: -6
- AF4-AF9 inh: -2.9
- RanGTP-Impb inh: 29*
- T cruzi inh: 1
- A1 inh: -0.5
- rRNA inh HTS: -4
- rRNA inh HTS OD600: 1
- rRNA inh HTS RFP: 2.3
- Vif A3G: -2%
O=C(Nc1ccc(-c2cc3ccccc3oc2=O)c(Cl)c1)c1cccnc1
- Calb FLC: -6
- Beta cell apopt: -4
- AF4-AF9 inh: -3.8
- RanGTP-Impb inh: -3.7
- T cruzi inh: -11
- A1 inh: 0.0
- rRNA inh HTS: 4
- rRNA inh HTS OD600: 15
- rRNA inh HTS RFP: 1.7
- Vif A3G: -7%

# Further records:
SMILES,Calb FLC,Beta cell apopt,AF4-AF9 inh,RanGTP-Impb inh,T cruzi inh,A1 inh,rRNA inh HTS,rRNA inh HTS OD600,rRNA inh HTS RFP,Vif A3G
O=C(COc1ccc(Cl)cc1)NN=C1CCCCCCC1,-36,x,-2.4,0.5,-6,0.0,13,-6,-0.5,u
COc1ccc(CCNC(=O)c2ccc3c(c2)NC(=O)C(C(C)C)N3)cc1OC (centres undefined),0,6,-2.5,-1.8,14,0.1,-2,3,-2.2,x
N/N=C/C(=N\Nc1ccc(Cl)cc1)C(=O)c1ccncc1,-1,-2,4.6,0.1,19,1.3,-10,-6,0.6,5%
CC(=O)NC(CCS(C)(=O)=O)C(=O)Nc1ccc(C)c(F)c1 (centres undefined),2,-6,x,u,-5,1.1,x,x,x,5%
CCCC(C(=O)NC1CCCC1)N(Cc1ccc(OC)cc1)C(=O)c1snc(C(N)=O)c1N (centres undefined),-2,2,5.1,-1.1,14,0.8,-7,-17,5.9,x
CC(C)NC(=O)CSc1ccccc1C(=O)N1CCN(S(=O)(=O)/C=C/c2ccccc2)CC1,x,0,-2.8,x,x,-0.3,-1,8,-1.7,-1%
CCc1ccc(N2CSC3=C(C#N)C(c4cccs4)CC(=O)N3C2)cc1 (centres undefined),-20,62,x,-3.6,-5,-0.2,x,x,x,u
CCCN(CC(=O)Nc1ccccc1OC)C(=O)CSc1ccc(Br)cc1C,x,-5,6.2,x,x,0.1,-21,-52,7.2,101%
CCOC(=O)c1cnc(COc2ccccc2Cl)[nH]c1=O,-5,-4,-2.9,4.1,-19,0.1,6,9,-5.2,9%

# An excerpt. The share of hits here may be higher or lower than overall.
